# High-throughput results (PubChem)
# rRNA inh HTS = inhibitors of bacterial rRNA selective over humanized ribosomes. E. coli WT GFP vs humanized-ribosome RFP mutants, fluorescence, 24 h; active compounds read low; DMSO median 0, no signal -100. GFP signal change (wild-type ribosome), % (concentration not given with the values). 350,000 tested, 1.6% active;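 active means significant combined selectivity score with lowered wild-type GFP, culture density cut under 30%, mutant RFP and density less affected; inactive means any of these conditions unmet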; further: one replicate is shown; some compounds called inactive have numbers as strong as hits
# UCH37 inh = human UCH37 deubiquitinating enzyme inhibition | purified proteasome/UCH37, Ub-AMC cleavage fluorescence | inhibition, % (concentration not given with the values) | 330,000 tested, 0.33% active;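 active means mean of two replicates above 20%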;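 further: 0% = compound-free wells with enzyme and 100% = wells lacking proteasome; stock transfer was 100 nL into about 20 µL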
# Target sequence (Q9Y5K5 whole entry, looked up): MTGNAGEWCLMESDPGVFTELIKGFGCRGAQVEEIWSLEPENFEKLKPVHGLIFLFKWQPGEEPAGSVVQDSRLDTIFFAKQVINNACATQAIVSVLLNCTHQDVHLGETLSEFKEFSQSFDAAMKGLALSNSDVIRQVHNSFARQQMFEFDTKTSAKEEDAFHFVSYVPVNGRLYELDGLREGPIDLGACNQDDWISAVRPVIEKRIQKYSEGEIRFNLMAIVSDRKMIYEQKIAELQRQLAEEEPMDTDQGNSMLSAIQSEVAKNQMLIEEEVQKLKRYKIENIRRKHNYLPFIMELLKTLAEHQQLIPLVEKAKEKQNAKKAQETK
#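 Assay system: Proteasome-bound UCH37. Buffer or medium: pH 7.4 Tris-HCl (50 mM) with ovalbumin, ATP-MgCl2, DTT. Incubation: 30 min preincubation with enzyme, 25 min cleavage at room temperature. Measured by: fluorescence, ex 355 nm, em 460 nm. Read-out basis: percent inhibition. Control set: wells without proteasome as full block, compound-free enzyme plus substrate as uninhibited.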
# HNF4A DNA FP = change in binding of human HNF4 alpha to DNA; 360,000 tested, 0.3% active; HNF4a-FITC DNA binding, fluorescence polarization, 1 h; AID 1224865; P41235; activity change, % at 10 µM; in the data active means activity change above about 30%, passing the limit was not always enough;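 further: controls were the assay level and a saturating level of protein; the project sought stronger binding though the title names inhibitors; some compounds called inactive have numbers as strong as hits; positive values seem to mean higher polarization but the record does not say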
# ALR H2O2 inh = human ALR oxidase inhibition via reduced H2O2; purified ALR, DTT oxidation, H2O2 HRP-luminol luminescence; inhibition, % (concentration not given with the values); 290,000 tested, 3.8% active;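 active means mean and each replicate at 75% or more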;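 further: stock transfer was 7.5 nL into about 7.5 µL; 0% = neutral wells and 100% = wells with inactivated enzyme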
# Target sequence (P55789 whole entry, looked up): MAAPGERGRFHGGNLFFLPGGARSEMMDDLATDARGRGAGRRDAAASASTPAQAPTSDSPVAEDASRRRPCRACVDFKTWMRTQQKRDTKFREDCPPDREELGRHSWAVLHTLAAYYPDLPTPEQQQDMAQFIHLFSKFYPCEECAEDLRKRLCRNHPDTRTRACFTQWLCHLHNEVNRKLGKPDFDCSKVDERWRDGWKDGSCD
# FGF22 binding = shifts melting point of recombinant human FGF22; recombinant FGF22 thermal shift, SYPRO orange fluorescence; percent of sucrose octasulfate shift, DMSO zero; calls only at 9.99 µM; 340,000 tested, 1.5% active; AID 651658;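 active means melting point raised past a set limit in the mean and every replicate; three in four hits are not shown here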
# Beta2AR agonist = activates human beta-2 adrenergic receptor causing internalization; P07550; Am2.2-beta2AR cells, FAP receptor internalization, flow cytometry; reference of the scale not given here; response, % (no concentration beside the values); 340,000 tested, 0.43% active;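 active means response above a set limit, near 3 SD of response in nonfluorescent compounds, cut at about 42% in these data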;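 further: stock transfer was 100 nL into about 11 µL; a reference agonist was the positive control; negative values mostly stem from fluorescent compounds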
# Target sequence (P07550 whole entry, looked up): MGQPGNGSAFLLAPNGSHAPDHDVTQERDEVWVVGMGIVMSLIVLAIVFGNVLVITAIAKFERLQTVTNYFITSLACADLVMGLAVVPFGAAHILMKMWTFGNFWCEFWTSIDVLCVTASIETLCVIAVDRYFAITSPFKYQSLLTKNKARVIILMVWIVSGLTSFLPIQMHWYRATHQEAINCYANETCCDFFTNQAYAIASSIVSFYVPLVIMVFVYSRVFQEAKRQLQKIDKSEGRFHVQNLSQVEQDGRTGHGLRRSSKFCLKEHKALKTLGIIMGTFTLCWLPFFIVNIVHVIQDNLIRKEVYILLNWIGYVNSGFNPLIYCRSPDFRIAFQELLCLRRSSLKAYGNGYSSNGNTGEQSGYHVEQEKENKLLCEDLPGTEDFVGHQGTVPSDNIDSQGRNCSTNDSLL
# Ecoli growth = blocks Escherichia coli growth; AID 1053175; OD600 absorbance (test concentration not listed); OD600, 23 h; active compounds read low; 330,000 tested, 0.21% active;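 active means OD600 absorbance below the run mean of sample wells minus 3.6 SD, in any replicate, cut at about 0.56 in these data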;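 further: stock transfer was 300 nL into about 60 µL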
# rRNA inh HTS OD600 = further read-out of rRNA inh HTS, marked with its call; OD600 change, %; measured here: OD600 growth;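 optical density of the mix in the first replicate; 0 = DMSO median and -100 = no signal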
# rRNA inh HTS RFP = further read-out of rRNA inh HTS, marked with its call; RFP signal change, %; measured here: RFP humanized mutant strains;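 first replicate; 0 = DMSO median and -100 = no signal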
# Active calls of the source: *; i = inactive; / = no result given. Not all compounds are listed. The share of hits here may be higher or lower than overall.
SMILES,rRNA inh HTS,rRNA inh HTS OD600,rRNA inh HTS RFP,UCH37 inh,HNF4A DNA FP,ALR H2O2 inh,FGF22 binding,Beta2AR agonist,Ecoli growth
COc1ccc(OC)c(N/C=C/C(=C(C#N)C#N)N(C)C)c1,-1,2,-0.3,8.3,0.3,-4,i,-5,0.66
COc1ccc([N+](=O)[O-])cc1N(CC(=O)NCCCOC(C)C)S(C)(=O)=O,15,3,-9.3,5.5,4.9,-34,i,3,0.68
Cc1ccc(Cl)cc1NC(=O)COC(=O)CC(C)(C)C,10,16,9.4,1.8,1.6,72,i,-3,0.68
Nc1nc(Cl)nc2c1ncn2C1OC(CO)C(O)C1O (stereo not drawn),/,/,/,/,-0.8,/,i,/,0.67
O=C(NCc1nc2ccccc2[nH]1)c1cccc(S(=O)(=O)N2CCOCC2)c1,/,/,/,-1.0,3.0,1,/,-7,0.73
CCn1c(SC)nc2cc(S(=O)(=O)N3CCCCC3)ccc21,-7,-8,1.2,0.6,-2.8,2,i,3,0.64
CCOC(=O)N1CCN(C(=O)c2c(Cl)cnn2C)CC1,18,16,3.5,5.0,3.4,-9,i,10,0.71
Cc1oc2c(O)c(O)ccc2c(=O)c1-c1ccccc1,-10,-16,-2.0,6.9,1.1,99*,i,10,0.73
Cc1cc(C)nc(NC(N)=NCCc2ccccc2)n1,-7,-18,-3.3,2.1,1.2,/,/,13,0.65
COc1ccc(N2CCc3c(C)nc4c(OC)cc(OC)cc4c32)cc1,-21,-22,-4.3,-6.1,2.9,-18,i,-2,0.64
O=C1CCCCC1C1(O)C(=O)Nc2ccccc21 (stereo not drawn),-3,9,0.1,/,0.6,/,i,/,/
CC(C)Oc1ccc(C(=O)N2CCCc3ccccc32)cc1,/,/,/,3.8,-0.1,1,/,-13,0.68
CC1=C2C3OC(=O)C(C)C3CCC2(C)C=C(Br)C1=O (stereo not drawn),6,4,0.2,/,-0.5,/,i,/,/
O=C(OCC(=O)N1CCCCCC1)c1cccc(Cl)c1,3,4,-5.1,2.2,0.3,1,i,-5,0.7
O=C(NCc1cc2ccccc2[nH]1)C1CCC(=O)N(CCCN2CCCC2=O)C1 (stereo not drawn),7,9,0.4,1.3,1.1,-3,i,20,0.71
N#Cc1ccc(-c2ccc(OCC3CNC(=O)O3)cc2)cc1 (stereo not drawn),-25,-30,-4.0,-11,2.8,-2,i,10,0.66
CCOC(=O)C(=CN(CCc1ccccc1)CC(=O)OC)C(=O)OCC,7,19,5.4,2.2,-0.4,-1,i,2,0.66
Cc1nc(CC(=O)NNS(=O)(=O)c2ccc3ccccc3c2)cs1,/,/,/,3.3,0.0,50,/,3,0.73
CCN1CCN(CCOc2cccc(Oc3ccccc3)c2)CC1,11,1,1.2,1.8,0.6,/,i,-2,0.7
CC(=O)NCCC(=O)Nc1cc(S(=O)(=O)N2CCCCC2)ccc1N1CCN(C)CC1,7,8,-0.5,0.2,2.0,-16,i,-7,0.65
CC12CCCCC1(O)[N+](=O)C1=C(CCCC1)N2[O-] (stereo not drawn),/,/,/,12,-0.7,-8,/,5,0.74
O=C(N/N=C/c1ccc([N+](=O)[O-])s1)C(O)c1ccccc1 (stereo not drawn),-62,-81,-24,/,3.3,-35,i,-1,/
O=C(COC(=O)c1nn(-c2ccccc2C(F)(F)F)cc1O)c1ccc(OC(F)F)cc1,6,-1,2.3,4.1,1.4,-1,i,-5,0.69
CCc1nnc(NC(=O)CCC(=O)N2CCN(Cc3ccc(Cl)cc3)CC2)s1,/,/,/,1.9,-1.5,-3,/,0,0.72
Cc1ccc(OCC(=O)OCC(=O)c2cccc([N+](=O)[O-])c2)cc1C,6,9,-4.3,/,2.5,-3,i,3,/

# Fetched by compound from above:
SMILES,rRNA inh HTS,rRNA inh HTS OD600,rRNA inh HTS RFP,UCH37 inh,HNF4A DNA FP,ALR H2O2 inh,FGF22 binding,Beta2AR agonist,Ecoli growth
COc1ccc([N+](=O)[O-])cc1N(CC(=O)NCCCOC(C)C)S(C)(=O)=O,15,3,-9.3,5.5,4.9,-34,i,3,0.68
COc1ccc(N2CCc3c(C)nc4c(OC)cc(OC)cc4c32)cc1,-21,-22,-4.3,-6.1,2.9,-18,i,-2,0.64
CCc1nnc(NC(=O)CCC(=O)N2CCN(Cc3ccc(Cl)cc3)CC2)s1,/,/,/,1.9,-1.5,-3,/,0,0.72
Cc1oc2c(O)c(O)ccc2c(=O)c1-c1ccccc1,-10,-16,-2.0,6.9,1.1,99*,i,10,0.73
N#Cc1ccc(-c2ccc(OCC3CNC(=O)O3)cc2)cc1 (stereo not drawn),-25,-30,-4.0,-11,2.8,-2,i,10,0.66
CC1=C2C3OC(=O)C(C)C3CCC2(C)C=C(Br)C1=O (stereo not drawn),6,4,0.2,/,-0.5,/,i,/,/

# The main list resumes, repeating the two entries before the break.
SMILES,rRNA inh HTS,rRNA inh HTS OD600,rRNA inh HTS RFP,UCH37 inh,HNF4A DNA FP,ALR H2O2 inh,FGF22 binding,Beta2AR agonist,Ecoli growth
CCc1nnc(NC(=O)CCC(=O)N2CCN(Cc3ccc(Cl)cc3)CC2)s1,/,/,/,1.9,-1.5,-3,/,0,0.72
Cc1ccc(OCC(=O)OCC(=O)c2cccc([N+](=O)[O-])c2)cc1C,6,9,-4.3,/,2.5,-3,i,3,/
O=C(N1CCNCC1)N1CCOCC1,/,/,/,1.1,/,1,/,/,0.72
CCOC(=O)C1=C(C)NC(=O)C1(NC(=O)c1cccnc1)C(F)(F)F (stereo not drawn),/,/,/,0.8,-1.0,-2,/,5,0.69
COC(=O)COc1ccc(S(=O)(=O)N2CCOCC2)cc1,/,/,/,3.7,2.2,-1,/,-2,0.71
O=C1c2ccccc2C(=O)N1CC1c2ccccc2CCN1S(=O)(=O)c1ccccc1 (stereo not drawn),/,/,/,4.2,4.3,-2,/,0,0.72
O=C(COc1ccc(S(=O)(=O)Nc2ccc(Cl)cc2)cc1)N1CCOCC1,0,1,0.7,1.7,-2.2,-13,i,2,0.62
CCCCn1c(-c2ccc(OC)cc2)nc2c(=O)n(C)c(=O)[nH]c21,-1,4,-0.9,-57,-2.7,6,i,-3,0.65
CC(=O)Oc1ccc(/C=C2/Oc3ccccc3C2=O)cc1,-3,-3,-5.6,4.6,18,-4,i,-28,0.7
CC1CCCC=CC2CC(OC(=O)CN(C)C)CC2C(O)C=CC(=O)O1 (stereo not drawn),0,-6,3.7,/,0.0,/,i,-7,/
CCOc1ccc2[nH]c3c(NCCN(CC)CC)ncnc3c2c1,0,3,-1.5,-80,-5.4,/,i,-1,0.69
CC(C)c1ccc2[nH]c(O)c(N=NC(=O)c3cccc(S(=O)(=O)Nc4ccccc4Cl)c3)c2c1,19,24,0.7,/,3.3,/,i,8,/
CCn1c(SCC(=O)NCc2ccco2)nnc1-c1cccs1,/,/,/,1.0,1.9,9,/,0,0.71
O=C(NC12CC3CC(CC(C3)C1)C2)N1CCN(c2nc(-c3ccccc3)cs2)CC1,/,/,/,7.0,0.1,6,/,9,0.75
CC(=O)Nc1ccc(NC(=O)c2cccc3ccccc23)cc1,-16,-18,-1.3,2.1,0.6,/,i,2,0.67
Brc1ccc(OCCCCCN2CCOCC2)cc1,0,-1,-1.2,1.6,-1.6,-3,i,-2,0.61
O=C(CN1CCC(NC(=O)c2ccccc2F)CC1)Nc1ccc2c(c1)OCO2,/,/,/,3.2,-0.1,/,/,1,0.75
Cc1c(C)c2cc(Cl)c(OCC(=O)NC3CC(C)(C)NC(C)(C)C3)cc2oc1=O,16,11,0.6,-20,3.4,-5,i,-2,0.71
NC(=S)NNC(=O)C12CC3CC(CC(C3)C1)C2,-3,-6,-2.8,/,0.5,7,i,4,/
COc1cccc(C(NC(C)=O)c2nc(-c3cccc(NC(C)=O)c3)cs2)c1 (stereo not drawn),5,7,3.3,/,-5.5,/,i,/,/
Cc1cc(C)nc(SCC(=O)c2ccc(O)cc2O)n1,-16,-24,-2.6,11,2.9,-14,i,5,0.72
COc1cc(C(=O)Nc2ccc(NC(=O)C3CCCCC3)nc2)cc(OC)c1OC,-2,0,1.3,6.5,-0.2,/,i,-1,0.71
O=C(CCN1C(=O)C2C3C=CC(C3)C2C1=O)N1CCN(c2ccc([N+](=O)[O-])cc2)CC1 (stereo not drawn),-4,-13,-2.2,7.2,-0.8,-11,i,6,0.69
O=C(Cn1cnc2c(oc3ccccc32)c1=O)N1CCCC1,5,5,0.5,1.1,6.9,-48,i,-4,0.67
CC(C)=CCc1c2c(c3occ(-c4ccc(O)c(O)c4)c(=O)c3c1O)C=CC(C)(C)O2,-1,25,1.0,/,1.4,/,i,17,/
O=C(OC1CCCCC1)c1ccc(NC(=O)c2ccco2)cc1,/,/,/,0.8,-0.5,/,/,3,0.71
COCCN(CC(=O)Oc1ccccc1P(=O)(OC)OC)Cc1ccccc1,/,/,/,3.7,-2.2,-20,i,-1,0.71
SMILES,rRNA inh HTS,rRNA inh HTS OD600,rRNA inh HTS RFP,UCH37 inh,HNF4A DNA FP,ALR H2O2 inh,FGF22 binding,Beta2AR agonist,Ecoli growth
CS(=O)(=O)N(CC(=O)N1CCOCC1)c1cccc(Cl)c1Cl,-10,0,-3.3,3.4,-3.4,7,i,-3,0.67
Cc1ccc(S(=O)(=O)N2CCC(C(=O)OCc3ccc([N+](=O)[O-])cc3)CC2)cc1,-13,-4,20,3.4,0.4,-7,i,-3,0.69
CCC(Oc1ccccc1)C(=O)N1CCN(CC)CC1 (stereo not drawn),/,/,/,5.0,1.1,-4,/,4,0.67
O=C(O)c1ccccc1Oc1ccc(Oc2ccccc2)cc1,-34,-31,-15,1.6,2.7,54,i,-7,0.61
COc1ccc(OCCC(=O)OCC(=O)NC2CCCCCCC2)cc1,4,-8,0.5,5.5,1.3,5,i,6,0.67
CCCc1cc(=O)oc2cc(C)cc(OCC(=O)NC3CCN(Cc4ccccc4)CC3)c12,13,14,2.1,-57,0.6,-1,i,1,0.67
CCn1c(=O)c(C(=O)NNS(=O)(=O)c2ccc(Br)cc2)c(O)c2ccccc21,-24,-13,-1.9,-0.2,-2.2,12,i,4,0.7
Cc1cccc(C(=O)O/N=C/c2c(Cl)n(C)c3ccccc23)c1,/,/,/,/,-0.8,-1,/,2,/
O=C(CN1C(=O)S/C(=C/C=C/c2ccccc2)C1=O)Nc1ccc(C(=O)O)cc1,-29,-40,-8.3,14,-0.9,6,i,0,0.66
COCCNC(=O)CN1C(=O)COc2ccc(S(=O)(=O)N3CC(C)CC(C)C3)cc21 (stereo not drawn),4,6,-2.2,1.6,-0.6,-3,i,5,0.73
COCC(=O)Nc1nnc(Cc2ccc(OC)c(OC)c2)s1,/,/,/,1.1,0.0,-10,/,-8,0.75
CCOc1ccc(NC(=O)c2cnc3scc(C)n3c2=O)cc1,2,1,1.4,-67,-3.4,16,i,-17,0.71
CCOc1ccc2nc(NC(=O)CC3Oc4ccccc4NC3=O)sc2c1 (stereo not drawn),11,9,1.9,3.0,0.5,11,/,-1,0.63
CC(C)CCN(C(=O)c1csnn1)C(C(=O)NC1CCCC1)c1ccc(F)cc1 (stereo not drawn),-26,-36,-7.8,-0.4,2.0,-1,i,0,0.69
S=C(Nc1ccccc1)N1CCCCC1,/,/,/,0.9,-3.0,-5,/,15,0.65
COc1ccc(CCCC(=O)Nc2cc(C)ccc2OC)cc1,0,-15,-4.8,2.0,0.5,-1,i,1,0.7
COc1cc(/C=C/c2ccc3cccc([N+](=O)[O-])c3n2)ccc1OCC#N,4,-1,-2.6,5.8,1.8,-19,i,27,/
COc1ccccc1N(CC(=O)N1CCCCC1C)S(=O)(=O)c1ccc(Cl)cc1 (stereo not drawn),-2,-9,1.8,/,2.2,/,i,/,/
CC1CC(C)CN(C(=O)c2cc(S(=O)(=O)N3CCCCC3)ccc2Cl)C1 (stereo not drawn),-1,4,-1.1,/,2.8,1,i,-2,/
